# From PubChem BioAssay
# VDR inhibitor: inhibitors of human vitamin D receptor; P11473; VDR-SRC2-3 peptide fluorescence polarization, 2 h; Potency, µM, without a hit: max response, negative = inhibition, usual class: inhibitors; actives 0.93% (n = 400,000); active means well fitted inhibition curve with a large enough effect; inconclusive means small, poorly fitted or top-dose-only effect, or another doubt; inactive means no such curve, though single readings can be large or run the other way; further: series mostly up to about 120 µM
# Target sequence (P11473 whole entry, looked up): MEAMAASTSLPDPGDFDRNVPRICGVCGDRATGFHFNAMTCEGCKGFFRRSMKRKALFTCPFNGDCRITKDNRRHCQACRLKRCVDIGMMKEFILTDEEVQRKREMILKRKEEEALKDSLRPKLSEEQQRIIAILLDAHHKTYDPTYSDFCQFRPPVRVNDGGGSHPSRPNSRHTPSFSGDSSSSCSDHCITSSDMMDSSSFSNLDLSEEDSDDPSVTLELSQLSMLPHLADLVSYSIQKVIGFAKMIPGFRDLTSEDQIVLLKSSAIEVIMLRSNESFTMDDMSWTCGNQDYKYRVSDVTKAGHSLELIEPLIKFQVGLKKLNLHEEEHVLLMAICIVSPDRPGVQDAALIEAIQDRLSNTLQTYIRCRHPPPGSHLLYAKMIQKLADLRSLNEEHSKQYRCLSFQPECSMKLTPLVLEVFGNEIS
#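 Fluorescence polarization assay of small-molecule disruption of VDR binding to coregulator peptide SRC2-3. Compounds and controls pin-transferred, then read after 2 h incubation at ambient room temperature.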
# * = called active by the depositor; ? = inconclusive; & = joins results of further samples. On the % scale 0 is the no-effect control and ±100 the full control effect; potency means the concentration at half of the fitted maximal effect.
# Start of the listing, in advance, two compounds:
cpd	SMILES	VDR inhibitor
1	O=C(NCC1CCCO1)c1nn2c(C(F)(F)F)cc(-c3ccco3)nc2c1Cl (stereo not given)	5.1%
2	Cc1cc2ncc(Cl)nc2cc1C	2.3%

# Results (from the top)
cpd	SMILES	VDR inhibitor
1	O=C(NCC1CCCO1)c1nn2c(C(F)(F)F)cc(-c3ccco3)nc2c1Cl (stereo not given)	5.1%
2	Cc1cc2ncc(Cl)nc2cc1C	2.3%
3	CN(C)CCCN(C(=O)c1ccc(S(=O)(=O)N2CCCCC2)cc1)c1nc2cc3c(cc2s1)OCO3	-10.1%
4	COc1cccc(NC(=O)c2ncc(Cl)c(Cl)c2Cl)c1	6.0%
5	COc1ccc(-c2ccc(C(C)=O)cc2)cc1[C@H]1[C@H]2C=CC[C@@H](C)[C@@H]2C(=O)N1Cc1ccccc1	-11.1%
6	COc1[nH]c2ccc(F)cc2c1C(=O)OCC1CCN(CCNS(C)(=O)=O)CC1	-8.4%&0.0%
7	COc1ccc(/C=C(\C#N)C(=O)Nc2cc(C)c(Cl)cc2OC)cc1O	-28.9%
8	CCOC(=O)CSCc1cn2cc(Cl)ccc2n1	-23.9%

# Entries above that have an aryl methoxy group (4):
cpd	SMILES	VDR inhibitor
4	COc1cccc(NC(=O)c2ncc(Cl)c(Cl)c2Cl)c1	6.0%
5	COc1ccc(-c2ccc(C(C)=O)cc2)cc1[C@H]1[C@H]2C=CC[C@@H](C)[C@@H]2C(=O)N1Cc1ccccc1	-11.1%
6	COc1[nH]c2ccc(F)cc2c1C(=O)OCC1CCN(CCNS(C)(=O)=O)CC1	-8.4%&0.0%
7	COc1ccc(/C=C(\C#N)C(=O)Nc2cc(C)c(Cl)cc2OC)cc1O	-28.9%

# (continued)
cpd	SMILES	VDR inhibitor
9	Cn1c(SCC(=O)NC(=O)Cc2ccccc2)nnc1-c1ccc(F)cc1	8.0%
10	CC1(C)N=C(N)N=C(N)N1c1ccc(OCCCOc2ccccc2)c(Cl)c1	-15.0%
11	CCCCCNC(=O)c1ccc2c(=O)n(CCCN3CCCC3=O)c(=S)[nH]c2c1	-7.9%
12	CC1(C)CC2CC(C)(CN2S(=O)(=O)c2ccc(C(=O)Nc3ccc(S(=O)(=O)N4CCOCC4)cc3)cc2)C1 (stereo not given)	-5.3%
13	CCOC(=O)/C(C#N)=C/C=C1/C=CC=CN1C	5.0%
14	COc1ccc(Cn2c(C(C)C)nc3sc4ccccc4c(=O)c3c2=O)cc1	3.1%
15	COc1ccccc1NC(=O)/C(C#N)=C/c1ccc(OCCN2CCOCC2)c(OC)c1	11.4%
16	CCOC(=O)C1C(=O)CC(=O)CC1CC(C)SCC (stereo not given)	-4.6%
17	CCn1c(SCC(=O)Nc2ccc3c(c2)OCCO3)nnc1-c1cccnc1	-14.1%
18	Cc1ccc(C)c(/C=C2\N=C(c3ccccc3F)OC2=O)c1	79.4µM*
19	CCc1nnc(NC(=O)CSc2nc3c([nH]c4ccccc43)c(=O)n2-c2ccc(Cl)cc2)s1	1.6%
20	CCN(CC)CCCNC(=O)CSc1nc(-c2cccs2)cc(C(F)(F)F)n1	-0.6%
21	Cc1ccc(CNC(=O)c2cc3c(=O)n(C)c4ccccc4c3n2C)o1	?
22	CSc1ccccc1OCc1cc(C(=O)N(C)Cc2ccncn2)no1	-0.6%
23	O=c1cc(CS(=O)(=O)c2ccccc2)nc(-c2ccncc2)[nH]1	3.2%
24	CC1CCCCC1NC(=O)CSc1nnc(-c2ccco2)n1C (stereo not given)	-13.8%
25	CCOC(=O)CN(C(=O)COC(=O)C1=NNC(=O)CC1)c1ccc(F)cc1	0.0%
26	NC1=NC2=C(CCCC2)C2(CCCCC2)S1	-3.6%
27	O=C(Nc1ccc2nc(SCCOc3ccccc3Cl)sc2c1)c1cccs1	13.9%
28	CCOc1cc(N2CCOCC2)c(OCC)cc1NC(=O)CN1C(=O)NC2(CCCCC2C)C1=O (stereo not given)	13.0%
29	CCCc1nc2c(c(=O)c3ccccc3n2C)c(=O)n1-c1cc(C)cc(C)c1	-15.8%
30	O=C1C=C(O)c2c(O)cc(O)c(O)c2C1=O	-18.2%
31	COc1ccccc1CCNC(=O)C1CCC(=O)N(Cc2ccccc2OC)C1 (stereo not given)	-21.5%
32	COc1ccc(C(=O)CSc2nnc(-c3ccco3)n2CC2CCCO2)cc1 (stereo not given)	-6.9%
33	O=C(NC1CCCC1)C1CCCN1C(=O)Oc1ccccc1 (stereo not given)	-6.0%
34	CCn1c2ccc(F)cc2c2nnc(NN)nc21	1.5%
35	COC(=O)/C=C1/S/C(=N/N=C/c2ccco2)NC1=O	-7.3%
36	COc1ccc(CCCc2nnc(SCc3nc4ccccc4c(=O)[nH]3)n2C)c(C)c1	-17.3%
37	COc1ccc(-c2nc(Cn3c(SCc4ccc(F)cc4)nc4cccnc43)c(C)o2)cc1	3.6%
38	Cc1n[nH]c(C)c1N1C(=O)c2cccc3cc(Br)cc(c23)C1=O	-0.4%
39	CCOC(=O)c1nc(C)sc1-c1ccnn1S(=O)(=O)c1cccc(Cl)c1	-0.9%
40	CC(C)c1cccc(C(C)C)c1NC(=O)COC(=O)C1CCC1	0.1%
41	CNC(=O)CSc1nnnn1CCCOC	2.8%
42	COc1ccccc1CNC(=O)c1cccc(C)c1[N+](=O)[O-]	0.6%
43	COc1ccc(Br)cc1CN(C)C(C)C(=O)Nc1cccc(C(C)=O)c1 (stereo not given)	-8.3%
44	O=C(CSc1cn(CC(=O)N2CCOCC2)c2ccccc12)Nc1ccccc1	5.3%
45	COc1ccc(CN2CC(COCc3ccccc3)Oc3ccccc3S2(=O)=O)cc1 (stereo not given)	-6.3%
46	CCc1nnc(NC(=O)c2ccc(S(=O)(=O)NC3CCCCC3)cc2)s1	-5.4%
47	O=c1c2sc3ccccc3c2n(Cc2cccc(F)c2)c(=O)n1CCc1ccccc1	-16.3%
48	COC(=O)CC1c2ccccc2C=C(C)N1C(=O)OC (stereo not given)	1.8%

# Sorted by the number under VDR inhibitor (rising): some entries from above.
cpd	SMILES	VDR inhibitor
43	COc1ccc(Br)cc1CN(C)C(C)C(=O)Nc1cccc(C(C)=O)c1 (stereo not given)	-8.3%
45	COc1ccc(CN2CC(COCc3ccccc3)Oc3ccccc3S2(=O)=O)cc1 (stereo not given)	-6.3%
42	COc1ccccc1CNC(=O)c1cccc(C)c1[N+](=O)[O-]	0.6%
48	COC(=O)CC1c2ccccc2C=C(C)N1C(=O)OC (stereo not given)	1.8%
41	CNC(=O)CSc1nnnn1CCCOC	2.8%

# The listing picks up; the four compounds before the break are reprinted first.
cpd	SMILES	VDR inhibitor
45	COc1ccc(CN2CC(COCc3ccccc3)Oc3ccccc3S2(=O)=O)cc1 (stereo not given)	-6.3%
46	CCc1nnc(NC(=O)c2ccc(S(=O)(=O)NC3CCCCC3)cc2)s1	-5.4%
47	O=c1c2sc3ccccc3c2n(Cc2cccc(F)c2)c(=O)n1CCc1ccccc1	-16.3%
48	COC(=O)CC1c2ccccc2C=C(C)N1C(=O)OC (stereo not given)	1.8%
49	COCCn1c(SCCCc2ccccc2)nc2c1c(=O)[nH]c(=O)n2C	-14.3%
50	O=C(COC(=O)/C=C/c1cccs1)Nc1cccc(S(=O)(=O)N2CCOCC2)c1	5.5%
51	CCOC(=O)C(C)Oc1ccc2c(C)cc(=O)oc2c1C(C)=O (stereo not given)	28.4%
52	O=[N+]([O-])c1ccc(S(=O)(=O)CC(CN2CCCCC2)N2CCCCC2)cc1 (stereo not given)	14.9%
53	COC(=O)n1c(=O)oc2cc(S(=O)(=O)N3CCOCC3)ccc21	-4.0%
54	O=C(CSCc1cc(=O)[nH][nH]1)Nc1ccc(F)cc1	12.2%
55	CC(=O)c1cccc(N(C(=O)c2ccco2)C(C(=O)NC2CCCC2)c2cccs2)c1 (stereo not given)	0.7%
56	Cc1cc(=O)n(Cc2ccc(Br)cc2F)c2c1c(C)nn2-c1ccccc1	3.2%
57	CCOC(=O)[C@@H]1[C@H]2COc3cc(OC)ccc3[C@@H]2N2C(=O)N(c3ccc(OC)cc3)C(=O)[C@]12C	-24.4%

# The list is partial; the hit share may differ from the screen's.
